From PubChem
Beta apoptosis: beta cell apoptosis inhibition | 0.8% of 300,000 active | protection from apoptosis, % (concentration not given with the values) | INS-1E cytokine-induced death, ATP luminescence, 48 h; percent of positive-control rescue, neutral wells zero | AID 435005;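 active = all replicates at 75% or more, or half of them and the mean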;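 also: 0% = cytokine-treated negative control wells and 100% = positive control rescue; higher means more ATP so stronger rescue from cytokine killing; wells of about 40 µL received 100 nL stock; the first replicate is given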
AF4-AF9 inh: blocks AF4 peptide binding to human AF9; P42568; AlphaScreen, biotin-AF4 peptide binding to FLAG-AF9; inhibition, % at 10 µM; 0.47% of 350,000 active; AID 651704;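 active = every replicate reaching a set inhibition limit, whatever the replicate mean, cut at about 25% in these data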;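 also: 0% = plate neutral control median and 100% = total signal loss; the record names both 10 and 1 µM as test concentration; the first replicate is given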
Target sequence (P42568 whole entry, looked up): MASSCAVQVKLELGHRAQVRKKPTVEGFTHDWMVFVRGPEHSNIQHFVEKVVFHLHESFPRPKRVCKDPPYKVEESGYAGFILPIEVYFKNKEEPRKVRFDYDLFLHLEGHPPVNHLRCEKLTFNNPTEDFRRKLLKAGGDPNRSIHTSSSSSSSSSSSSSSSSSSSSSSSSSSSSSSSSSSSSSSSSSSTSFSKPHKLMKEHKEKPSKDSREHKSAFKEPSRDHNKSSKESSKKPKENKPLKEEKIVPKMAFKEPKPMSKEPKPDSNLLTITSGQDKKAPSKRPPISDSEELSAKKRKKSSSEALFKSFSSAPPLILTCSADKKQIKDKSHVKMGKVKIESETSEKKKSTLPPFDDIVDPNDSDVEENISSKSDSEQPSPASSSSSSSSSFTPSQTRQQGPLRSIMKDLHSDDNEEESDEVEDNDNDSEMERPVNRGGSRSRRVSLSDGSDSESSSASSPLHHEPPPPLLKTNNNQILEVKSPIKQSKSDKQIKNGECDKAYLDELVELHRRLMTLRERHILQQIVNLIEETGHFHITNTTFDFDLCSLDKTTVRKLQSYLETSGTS
T cruzi repl: blocks replication of Trypanosoma cruzi. 1.4% of 300,000 active. inhibition, % (concentration not given with the values). T. cruzi beta-gal in NIH3T3, luminescence, 90 h;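 active = mean inhibition across valid replicates above about 55%, limit read from the data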;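 also: signal also drops with host cell toxicity which is not excluded here; 0% = plate median of DMSO wells and 100% = zero luminescence signal; higher percent means less beta-gal luminescence so fewer parasites; stock transfer was 50 nL into about 50 µL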
rRNA inh HTS: inhibits bacterial ribosomal RNA function over humanized ribosomes; E. coli WT GFP vs humanized-ribosome RFP mutants, fluorescence, 24 h; stronger effect = lower value; DMSO median 0, no signal -100; GFP signal change (wild-type ribosome), % (test concentration not listed); 1.6% of 350,000 active;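 active = significant combined selectivity score with lowered wild-type GFP, culture density cut under 30%, mutant RFP and density less affected; inactive = any of these conditions unmet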; also: one replicate is shown; some compounds called inactive have numbers as strong as hits
UCH37 inh: human UCH37 deubiquitinating enzyme inhibition; AID 588478; Q9Y5K5; purified proteasome/UCH37, Ub-AMC cleavage fluorescence; inhibition, % (no concentration beside the values); 0.33% of 330,000 active;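 active = mean of two replicates above 20%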;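 also: 0% = compound-free wells with enzyme and 100% = wells lacking proteasome; stock transfer was 100 nL into about 20 µL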
Target sequence (Q9Y5K5 whole entry, looked up): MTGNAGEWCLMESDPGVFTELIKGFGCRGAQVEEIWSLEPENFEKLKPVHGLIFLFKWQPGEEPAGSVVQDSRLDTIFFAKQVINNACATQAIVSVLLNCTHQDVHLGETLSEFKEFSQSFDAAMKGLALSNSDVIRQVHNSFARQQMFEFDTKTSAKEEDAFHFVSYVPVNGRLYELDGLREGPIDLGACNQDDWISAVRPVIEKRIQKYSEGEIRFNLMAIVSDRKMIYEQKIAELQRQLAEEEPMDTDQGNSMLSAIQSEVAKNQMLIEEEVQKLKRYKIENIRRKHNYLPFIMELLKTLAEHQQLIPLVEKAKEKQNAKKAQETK
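Assay system: Proteasome-bound UCH37. Buffer or medium: pH 7.4 Tris-HCl (50 mM) with ovalbumin, ATP-MgCl2, DTT. Incubation: 30 min preincubation with enzyme, 25 min cleavage at room temperature. Measured by: fluorescence, ex 355 nm, em 460 nm. Read-out basis: percent inhibition. Control set: wells without proteasome as full block, compound-free enzyme plus substrate as uninhibited.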
FGF22 binding: FGF22 (human) thermal shift binding; recombinant FGF22 thermal shift, SYPRO orange fluorescence; percent of sucrose octasulfate shift, DMSO zero; calls only at 9.99 µM; 1.5% of 340,000 active; AID 651658;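 active = melting point raised past a set limit in the mean and every replicate; three in four hits are not shown here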
Target sequence (Q9HCT0 whole entry, looked up): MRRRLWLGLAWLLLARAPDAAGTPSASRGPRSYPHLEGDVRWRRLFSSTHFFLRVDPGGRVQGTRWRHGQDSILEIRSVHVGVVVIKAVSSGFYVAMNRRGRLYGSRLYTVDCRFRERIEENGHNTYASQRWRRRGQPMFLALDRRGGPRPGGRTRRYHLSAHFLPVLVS
Ecoli growth: inhibitors of Escherichia coli growth. OD600, 23 h; stronger effect = lower value. OD600 absorbance (no concentration beside the values). 0.21% of 330,000 active. AID 1053175;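 active = OD600 absorbance below the run mean of sample wells minus 3.6 SD, in any replicate, cut at about 0.56 in these data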;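 also: stock transfer was 300 nL into about 60 µL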
Bfl-1 A1 inh: inhibitors of the anti-apoptotic protein A1, read as caspase activation; AID 2462; caspase activation, % (no concentration beside the values); 0.066% of 330,000 active; MEF A1-2A-BIM cells, Caspase-Glo 3/7 luminescence, 3 h; percent of clofoctol response, vehicle zero;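 active = over half of replicate activation scores above 10%, or exactly half above 10 with the replicate mean above 10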;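 also: wells of about 30 µL received 50 nL stock; many hits fall short of the cut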
rRNA inh HTS OD600: second read-out of rRNA inh HTS, no call of its own (marks repeat the call); OD600 change, %; measured here: OD600 growth;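 optical density of the mix in the first replicate; 0 = DMSO median and -100 = no signal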
rRNA inh HTS RFP: also measured in rRNA inh HTS; calls as there; RFP signal change, %; measured here: RFP humanized mutant strains;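 first replicate; 0 = DMSO median and -100 = no signal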
* marks the source's active call; other numbers are inactive results; i = inactive; x = not tested or not shown. The list is partial (hit frequency here may not be typical).

SMILES | Beta apoptosis | AF4-AF9 inh | T cruzi repl | rRNA inh HTS | rRNA inh HTS OD600 | rRNA inh HTS RFP | UCH37 inh | FGF22 binding | Ecoli growth | Bfl-1 A1 inh
Cc1ccc(C(=O)Nc2nc3ccccc3[nH]2)cc1 | 30 | 3.0 | 9 | 9 | 5 | 2.2 | -0.7 | i | 0.63 | -7.8
CS(=O)(=O)c1ccc(C(=O)Nc2ccc(N3CCCC3)cc2)c(Cl)c1 | 10 | -1.7 | -6 | 7 | 6 | 1.1 | 2.5 | i | 0.67 | -1.5
CN(CCc1cn[nH]c1)Cc1nc(Cc2ccccc2)no1 | -5 | 0.6 | -5 | 14 | 12 | 1.4 | 5.4 | i | 0.7 | 0.3
Cc1ccc(COC(=O)Cc2coc3cc(O)ccc23)cc1 | -7 | 0.7 | -7 | -14 | -5 | 8.1 | x | i | x | -0.1
Cc1cc(Sc2ccc([N+](=O)[O-])cn2)ccc1Br | -11 | -5.1 | -16 | 2 | 9 | 1.1 | 5.0 | i | 0.7 | -0.4
O=C(CN1C(=O)/C(=C/c2cccc(Br)c2)SC1=S)N1CCCC1 | -21 | 1.8 | -2 | 15 | 3 | -0.8 | 4.2 | i | 0.66 | 0.5
CCC(=O)C1CCCN(C(=O)c2cccc(OC3CCN(S(C)(=O)=O)CC3)c2)C1 (centres undefined) | -6 | x | -5 | x | x | x | 2.6 | x | 0.65 | 1.5
Cc1ccc(/C=C/c2onc(C)c2S(=O)(=O)N2CCC(C(=O)N3CCCCC3)CC2)cc1 | 17 | 5.8 | 25 | 1 | -2 | -1.2 | 2.3 | i | 0.76 | -0.2
COc1ccc(S(=O)(=O)N2CCCN(S(=O)(=O)c3ccc(OC)cc3C)CC2)c(C)c1 | -1 | x | 8 | x | x | x | 6.6 | x | 0.71 | -0.5
CNS(=O)(=O)c1cccc(C(=O)OCC(=O)c2ccc3c(c2)OCCO3)c1 | x | -0.2 | x | -2 | -2 | -0.9 | 3.8 | i | 0.7 | x
O=C(Cc1ccccc1Cl)c1ccccc1 | x | -3.4 | x | x | x | x | 0.9 | i | 0.61 | x
CCN(C(=O)COC(=O)C1CCC(C(C)(C)C)CC1)c1c(N)n(Cc2ccccc2)c(=O)[nH]c1=O (centres undefined) | x | 0.7 | x | 5 | 10 | -1.8 | 2.3 | i | 0.65 | x

A draw from above in order of number of heavy atoms, ascending.
SMILES | Beta apoptosis | AF4-AF9 inh | T cruzi repl | rRNA inh HTS | rRNA inh HTS OD600 | rRNA inh HTS RFP | UCH37 inh | FGF22 binding | Ecoli growth | Bfl-1 A1 inh
Cc1cc(Sc2ccc([N+](=O)[O-])cn2)ccc1Br | -11 | -5.1 | -16 | 2 | 9 | 1.1 | 5.0 | i | 0.7 | -0.4
Cc1ccc(C(=O)Nc2nc3ccccc3[nH]2)cc1 | 30 | 3.0 | 9 | 9 | 5 | 2.2 | -0.7 | i | 0.63 | -7.8
CS(=O)(=O)c1ccc(C(=O)Nc2ccc(N3CCCC3)cc2)c(Cl)c1 | 10 | -1.7 | -6 | 7 | 6 | 1.1 | 2.5 | i | 0.67 | -1.5

Continued:
SMILES | Beta apoptosis | AF4-AF9 inh | T cruzi repl | rRNA inh HTS | rRNA inh HTS OD600 | rRNA inh HTS RFP | UCH37 inh | FGF22 binding | Ecoli growth | Bfl-1 A1 inh
CCN(Cc1ccccc1)S(=O)(=O)c1cc(C(=O)OC)n(C)c1 | -2 | -1.5 | 3 | -7 | -13 | -1.4 | 5.2 | i | 0.71 | -0.2
NC(=O)C1CCN(C(=O)CSc2nc3ccccc3[nH]2)CC1 | -3 | x | 5 | x | x | x | 0.6 | x | 0.68 | -0.5
COc1cccc(-c2ncc3ccccn23)c1 | -2 | x | 29 | x | x | x | -29 | x | 0.74 | -0.9
COC(=O)c1ccc(CNC(=O)c2ccc3c(c2)OCCO3)cc1 | -7 | -4.5 | -1 | 0 | 2 | 0.3 | 1.5 | i | 0.67 | -0.7
O=C(CSc1nnnn1-c1cccc(O)c1)NC1CC1 | -5 | -0.3 | -10 | 10 | 9 | 0.5 | 0.7 | i | 0.7 | 0.7
CCC(C)C(=O)OC1CCC=C2C=CC(C)C(CCC3CC(O)CC(=O)O3)C21 (centres undefined) | x | -0.9 | x | 5 | 6 | 4.3 | x | i | 0.66 | x
Cc1ccc(C(=O)c2ccccc2C(=O)O)s1 | -2 | x | -5 | x | x | x | 3.2 | x | 0.72 | 0.7
CCOC(=O)C1CCCN(CCC(=O)Nc2ccc(Br)c(C)c2)C1 (centres undefined) | -2 | 0.6 | -3 | -10 | -3 | -0.8 | 5.1 | i | 0.67 | 0.1
O=C(NCC1CCCO1)c1ccccc1NC(=O)c1cccc2ccccc12 (centres undefined) | 2 | x | 5 | x | x | x | 2.3 | x | 0.74 | 0.3
CCN(CC)CCNc1nc2c(c(=O)[nH]c(=O)n2C)n1CCCc1ccccc1 | 2 | -0.5 | 9 | 7 | 17 | -2.4 | 4.3 | i | 0.73 | 2.9
Cc1cc(=O)oc2cc3oc(=O)cc(C)c3cc12 | x | -1.2 | -19 | 5 | 4 | -1.6 | -18 | i | 0.67 | -0.2
CCOc1ccc(NC(=O)CN(C)C(=O)c2cccc3ccccc23)cc1OCC | x | 0.5 | x | -2 | -12 | 0.1 | 2.3 | i | 0.69 | x
COc1ccc(OC)c(-c2nn(-c3ccccc3)cc2C(=O)NCC(c2cccs2)N2CCOCC2)c1 (centres undefined) | 5 | 4.0 | 29 | -10 | -7 | -0.4 | -1.4 | i | 0.72 | -0.8
CN1CCC(OC(=O)c2ccc(Br)cc2)CC1 | 1 | x | 62* | x | x | x | 5.4 | x | 0.69 | -0.3
COc1ccc(C(=O)n2c(N)nc3ccccc32)cc1OC | -3 | 7.2 | 6 | -8 | -15 | -4.5 | 4.8 | i | 0.66 | -3.3
COc1ccccc1C(=O)N/N=C1/NC(=O)CC(C(=O)Nc2ccccc2)S1 (centres undefined) | -3 | 2.5 | -3 | -2 | -1 | -0.4 | 3.3 | i | 0.69 | 0.0
COc1ccc(C)cc1NC(=O)C1CCN(C(=O)Cc2ccccc2)CC1 | -3 | -0.6 | 6 | 0 | -3 | 3.1 | 3.4 | i | 0.7 | -0.2
COC(=O)[C@H]1C[C@@H]1[C@H](NC(=O)c1cc(C)on1)c1ccccc1 | -4 | -5.1 | -10 | 18 | 13 | 0.0 | 1.8 | i | x | 1.5
CCOC(=O)CC(=O)CSc1nc2c(sc(=S)n2-c2ccc(C)c(C)c2)c(=O)[nH]1 | x | 2.4 | -3 | -18 | -15 | 16 | 9.9 | i | 0.67 | 0.4
CC1CC1C(=O)OCC(=O)NCc1ccc(Cl)cc1Cl (centres undefined) | 0 | x | -15 | x | x | x | 1.7 | x | 0.61 | 0.1
Cn1cnnc1SCc1ccc(F)c2ccccc12 | -13 | x | -13 | x | x | x | 2.8 | x | 0.68 | 0.3
CC(=O)NC1C(=O)N=C(SCC(=O)Nc2sc3c(c2C#N)CCCCCC3)NC1=O (centres undefined) | x | -1.7 | 1 | -4 | -14 | 0.9 | 6.9 | i | 0.66 | 1.2
CN1CCc2nc(NC(=O)c3cccc(S(=O)(=O)N4CCc5ccccc54)c3)sc2C1 | 1 | x | 25 | x | x | x | 0.4 | x | 0.68 | 0.9
O=C1C=C(NCCc2ccccc2)C2(CCCCC2)O1 | 10 | -1.4 | -38 | -18 | -18 | -0.1 | 4.1 | i | 0.7 | 0.8
CCN(CC(=O)Nc1ccc(NC(C)=O)cc1)C(=O)c1ccc(N2CCC(C)CC2)c([N+](=O)[O-])c1 | 2 | 7.4 | x | 1 | 9 | 0.7 | 1.9 | i | 0.65 | 0.1
Cc1cc(=O)[nH]c2c1c(C)nn2C1CCCC1 | -4 | x | -8 | x | x | x | 0.2 | x | 0.67 | -0.5
COc1ccc(NC(=O)/C(=C\c2ccc(OS(=O)(=O)c3ccc(C)cc3)cc2)NC(=O)c2ccccc2)cc1 | 6 | x | 24 | x | x | x | -1.7 | x | x | 0.7
Cc1ccc(/C=C2\SC(N3CCCC3)=NC2=O)cc1 | -1 | 2.9 | 13 | -7 | 6 | 3.1 | 10 | i | 0.69 | -0.4
O=S(=O)(c1ccc(S(=O)(=O)N(Cc2ccco2)Cc2ccccc2Cl)cc1)N1CCCC1 | 2 | x | 7 | x | x | x | 2.5 | x | 0.67 | 0.9
COC(=O)c1ccc(OCCCCN(C)Cc2ccccc2)cc1 | x | -4.1 | 41 | -5 | -10 | -1.8 | 2.7 | i | 0.71 | 0.2
CC(C)CCOP(=O)(c1ccc(N(C)C)cc1)C(O)c1ccccn1 (centres undefined) | 7 | x | -18 | x | x | x | 2.6 | x | 0.66 | 0.3
NS(=O)(=O)c1cccc(NC(=O)CSc2nc3nc(-c4cccs4)cc(C(F)(F)F)c3c(=O)[nH]2)c1 | -2 | -10 | -18 | -8 | -21 | 12 | -187 | x | 0.7 | -0.4
CN(Cc1ccccc1)C(=O)C1CCN(S(=O)(=O)c2cccc3nonc23)CC1 | 5 | 9.8 | 9 | -2 | 4 | 0.0 | 4.1 | i | 0.69 | -0.3
O=C(CS(=O)(=O)Cc1ccccc1)Nc1nnc(C2CCCCC2)s1 | x | x | -5 | x | x | x | 1.5 | x | 0.72 | -0.3
O=C(c1ccccn1)N1CCCC(N2CCN(c3ccccc3)CC2)C1 (centres undefined) | -4 | -1.0 | 5 | 3 | 5 | -2.7 | 2.6 | i | 0.68 | -0.3
COCc1cc(=O)[nH]c2cc(NC(=O)C(F)(F)F)c(C)cc12 | x | x | 0 | x | x | x | -146 | x | 0.65 | 1.0
O=C(COc1ccccc1)NCc1ccccc1 | x | x | -17 | x | x | x | 5.4 | x | 0.7 | -0.3
CC(C)CN(C(=O)CSc1nnnn1-c1ccccc1)c1c(N)n(CC(C)C)c(=O)[nH]c1=O | x | -0.3 | 3 | 7 | 9 | 5.1 | -1.9 | i | 0.67 | -0.4
O=C(Nc1ccccc1)c1ccc[n+](Cc2ccc([N+](=O)[O-])cc2)c1 | x | x | -2 | x | x | x | 9.0 | x | 0.67 | 0.0
CC(C)(CNC(=O)c1ccc(S(=O)(=O)Nc2ccccc2F)cc1)N1CCOCC1 | 3 | -20 | -6 | 1 | 12 | -0.8 | x | i | x | 0.0
CN1CCN(C(=O)c2cc(Cl)cc(Cl)c2)CC1 | 4 | -2.4 | -12 | 5 | 15 | 2.2 | x | i | x | 1.0
CCN(CC)C(=O)Oc1ccc2oc(=O)cc(-c3cc4cccc(OC)c4o3)c2c1 | 0 | 0.1 | 31 | 6 | -5 | 3.4 | -56 | i | 0.67 | 0.1
Cc1occc1-c1nnc(SCC(N)=O)o1 | -2 | 1.6 | 0 | 11 | 0 | -2.4 | 4.1 | i | 0.66 | -1.0
CCC(C)(O)C(=O)N[C@H]1CCCN1C(=O)/C=C/c1ccccc1 (some centres undefined) | 1 | -14 | x | 13 | 4 | 5.3 | 3.0 | i | x | 0.8
CSc1ncccc1C(=O)OCC(=O)N(C)C | -3 | 1.1 | 6 | 1 | 6 | -0.4 | 0.5 | i | 0.71 | 0.4
